UCH37 inh – inhibitors of human deubiquitinating enzyme UCH37; inhibition, % (no concentration beside the values); actives 0.33% (n = 330,000); Q9Y5K5; AID 588478; purified proteasome/UCH37, Ub-AMC cleavage fluorescence;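 active = mean of two replicates above 20%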;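 also: 0% = compound-free wells with enzyme and 100% = wells lacking proteasome; stock transfer was 100 nL into about 20 µL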
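System: Proteasome-associated human UCH37 deubiquitinase; Input: 0.15 nM proteasome in added enzyme buffer; Also added: Ub-AMC substrate from 1 µM stock; Incubation: 30 min compound-proteasome preincubation then 25 min substrate reaction, room temperature; Detection: fluorescence, ex 355 nm, em 460 nm; Read-out: % inhibition of Ub-AMC cleavage fluorescence; Benchmarks: no-proteasome and no-compound wells.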
Vif A3G – HIV-1 Vif–A3G interaction blockers – biochemical, TR-FRET, GST-Vif 1-94, biotin-A3G peptide, dose response retest, primary screen (AID 1117319). one-dose inhibition, %; IC50 in µM for titrated hits. actives 0.57% (n = 260,000). TR-FRET GST-Vif / biotin-A3G peptide binding; higher % means a stronger effect; test concentration not given here; strong numbers were not always called active;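 active = above the screen mean plus three standard deviations and confirmed in dose response; inconclusive = results disagree or hit not tested in dose response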;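 also: Vif residues 1-94 fused to GST binding biotinylated APOBEC3G peptide 110-148; 0% = full assay without inhibitor and 100% = GST in place of GST-Vif; retest series ran down from 100 µM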
B2AR ag – agonists of human beta-2 adrenergic receptor inducing internalization; P07550; Am2.2-beta2AR cells, FAP receptor internalization, flow cytometry; reference of the scale not given here; response, % (no concentration beside the values); actives 0.43% (n = 340,000);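 active = response above a set limit, near 3 SD of response in nonfluorescent compounds, cut at about 42% in these data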;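 also: stock transfer was 100 nL into about 11 µL; a reference agonist was the positive control; negative values mostly stem from fluorescent compounds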
HNF4A DNA FP – change in binding of human HNF4 alpha to DNA | P41235 | HNF4a-FITC DNA binding, fluorescence polarization, 1 h | actives 0.3% (n = 360,000) | activity change, % at 10 µM; in the data active = activity change above about 30%, passing the limit was not always enough;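 also: controls were the assay level and a saturating level of protein; the project sought stronger binding though the title names inhibitors; some compounds called inactive have numbers as strong as hits; positive values seem to mean higher polarization but the record does not say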
A1 inh – inhibitors of the anti-apoptotic protein A1, read as caspase activation; caspase activation, % (concentration not given with the values); actives 0.066% (n = 330,000); MEF A1-2A-BIM cells, Caspase-Glo 3/7 luminescence, 3 h; percent of clofoctol response, vehicle zero;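 active = over half of replicate activation scores above 10%, or exactly half above 10 with the replicate mean above 10; inconclusive = replicate mean below 10 yet half the replicates above 10; inactive = over half of replicates below 10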;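 also: wells of about 30 µL received 50 nL stock; many hits fall short of the cut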
Ecoli growth – E. coli growth inhibition; actives 0.21% (n = 330,000); Escherichia coli growth, OD600, 23 h; active compounds read low; OD600 absorbance (test concentration not listed);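 active = OD600 absorbance below the run mean of sample wells minus 3.6 SD, in any replicate, cut at about 0.56 in these data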;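 also: stock transfer was 300 nL into about 60 µL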
LANA-H2B inh – blocks KSHV LANA binding to histone H2A/H2B; Q9QR71; cell-free LANA-H2A/H2B peptide, fluorescence polarization; inhibition, % (no concentration beside the values); actives 0.6% (n = 320,000); AID 2629; in the data active = inhibition mostly above about 10%, no sharp cut-off; inactive = mostly below about 6.7%;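 also: stock transfer was 7.5 nL into about 10 µL; 0% = median of vehicle wells and 100% = median of positive control wells; one replicate is shown; the record names a cut of 25% in any replicate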
Target sequence (Q9QR71 whole entry, looked up): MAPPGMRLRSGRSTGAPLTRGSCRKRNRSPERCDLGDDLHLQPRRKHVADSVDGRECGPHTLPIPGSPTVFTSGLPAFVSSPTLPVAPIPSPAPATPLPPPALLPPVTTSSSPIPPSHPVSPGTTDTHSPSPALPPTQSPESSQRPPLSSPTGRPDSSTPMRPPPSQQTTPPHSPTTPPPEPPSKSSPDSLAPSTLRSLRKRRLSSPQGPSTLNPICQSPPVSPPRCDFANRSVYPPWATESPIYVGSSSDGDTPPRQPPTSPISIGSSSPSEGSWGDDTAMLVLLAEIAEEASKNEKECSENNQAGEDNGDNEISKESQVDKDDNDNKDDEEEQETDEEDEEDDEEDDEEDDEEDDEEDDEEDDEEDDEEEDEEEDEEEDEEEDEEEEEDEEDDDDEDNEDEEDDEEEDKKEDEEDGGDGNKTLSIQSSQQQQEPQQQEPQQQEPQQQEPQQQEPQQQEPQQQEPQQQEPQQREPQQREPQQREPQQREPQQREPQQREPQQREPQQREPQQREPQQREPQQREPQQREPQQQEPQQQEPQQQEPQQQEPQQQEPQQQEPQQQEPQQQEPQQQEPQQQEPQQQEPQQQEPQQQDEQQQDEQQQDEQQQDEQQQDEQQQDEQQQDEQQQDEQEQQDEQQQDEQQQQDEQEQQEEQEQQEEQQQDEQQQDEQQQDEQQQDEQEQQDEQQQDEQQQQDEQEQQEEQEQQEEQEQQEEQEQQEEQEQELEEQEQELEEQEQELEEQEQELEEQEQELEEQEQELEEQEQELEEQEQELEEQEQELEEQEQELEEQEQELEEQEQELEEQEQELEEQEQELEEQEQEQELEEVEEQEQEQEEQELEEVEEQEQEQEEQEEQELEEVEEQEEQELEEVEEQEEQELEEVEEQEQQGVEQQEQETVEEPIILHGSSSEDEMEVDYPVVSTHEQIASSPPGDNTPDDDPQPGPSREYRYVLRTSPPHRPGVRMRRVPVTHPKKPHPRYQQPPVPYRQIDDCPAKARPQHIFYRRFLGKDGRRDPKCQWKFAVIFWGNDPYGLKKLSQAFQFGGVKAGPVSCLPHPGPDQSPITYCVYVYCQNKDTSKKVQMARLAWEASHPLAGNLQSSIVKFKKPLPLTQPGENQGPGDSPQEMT
Starred values were filed as active, the others as inactive; ? = inconclusive; / = not tested or not shown.

No.	canonical_smiles	UCH37 inh	Vif A3G	B2AR ag	HNF4A DNA FP	A1 inh	Ecoli growth	LANA-H2B inh
1	COc1ccc(Oc2ccc3c(C(F)(F)F)cc(C(F)(F)F)nc3n2)cc1	0.6	-1.6%	-15.2	-3.1	-0.2	0.686	0.1
2	CCc1ccc(-c2cc(C(=O)N/N=C/c3c[nH]c4ccccc34)[nH]n2)cc1	/	-11.4%	-1.3	-0.5	-0.4	/	-1.3
3	CCOC(=O)C1CCCN(C(=O)CCc2nc3sc4c(c3c(=O)[nH]2)CCCC4)C1 (stereo not drawn)	4.0	/	-1.5	-0.5	1.8	0.705	-9.7
4	CCN(CC)CC1C(=O)N(c2ccc(OC)cc2)C1c1ccccc1 (stereo not drawn)	2.3	/	-16.5	-3.1	-1.5	0.626	3.4
5	O=C(c1ccc(Cl)cc1)c1ccc(Oc2cc(NN3CCCCC3)c([N+](=O)[O-])cc2[N+](=O)[O-])cc1	3.8	/	2.2	4.5	-0.2	0.723	-2.1
6	COc1ccc(/C=C(\C#N)C(=O)NCc2ccccc2)cc1O	10.0	/	7.4	-0.8	-0.1	0.679	-6.1
7	Fc1ccccc1OCCCCN1CCCCC1	1.7	/	2.1	-2.2	1.1	0.697	-1.9
8	CN(CCO)c1nc(N)c2c(N)nc3c(c2c1C#N)CC(=O)N3C1CCCC1	-73.6	?	/	/	-0.4	0.773	5.6
9	O=C(Nc1ccc(Br)cc1)c1cccc(S(=O)(=O)Nc2ccccn2)c1	-4.1	/	-0.7	-0.7	-11.7	0.699	1.2
10	Cc1cc(NC(=O)c2ccc3c(c2)OCCO3)no1	1.0	11.0%	0.1	-3.8	-1.3	0.711	4.7
11	CCn1c(COc2ccccc2)nnc1SCc1ccc(C#N)cc1	2.0	6.1%	0.1	1.4	0.3	0.736	-3.5
12	O=C(COc1ccc(S(=O)(=O)NC2CCCCC2)cc1)N1CCN(c2cccc(Cl)c2)CC1	2.8	3.4%	-1.6	3.6	/	0.723	/
13	O=C(CCl)Nc1cccc(S(=O)(=O)NC2=NCCCCC2)c1	2.0	/	2.2	2.2	0.5	0.614	2.0
14	CC(=O)Nc1cccc(/C(C)=N/NS(=O)(=O)c2ccccc2)c1	/	3.9%	-6.9	3.3	1.2	/	0.8
15	Cc1cc(C)n(CC(=O)N2CCCC(N3CCN(Cc4ccc5c(c4)OCO5)CC3)C2)n1 (stereo not drawn)	2.3	/	2.1	0.5	-1.2	0.722	0.9
16	CC(=O)n1cc(/C=N/NC(=O)c2ccccc2O)c2ccccc21	/	-4.1%	0.3	-0.3	-5.1	/	2.8
17	COc1cccc(C(C)NC(=O)Nc2ccccc2Cl)c1 (stereo not drawn)	6.0	18.9%	2.5	-2.9	0.1	0.685	14.6*
18	COc1ccc(-c2nc(C#N)c(N3CCOCC3)o2)cc1OC	-119.9	-3.8%	-4.5	-0.9	-0.5	0.676	-5.8
19	Cc1cc(C)n(CC(=O)NNC(=O)c2ccc(OC(F)(F)F)cc2)n1	-1.0	9.9%	10.4	3.4	-0.4	0.673	3.7
20	Cc1nc2c(-c3ccc(F)cc3)c(C)nn2c(C)c1CCC(=O)NCCN1CCOCC1	4.1	-2.3%	-3.0	0.0	-0.8	0.694	-1.4
21	CC(C)Nc1ccccc1	-0.5	/	-4.9	5.0	-0.2	0.651	-22.9
22	Cc1ccc(CNC(=O)CSc2nc(=O)n3ccccc3n2)cc1	8.4	-13.3%	-0.4	2.4	0.3	0.701	1.4
23	Fc1cccc(Nc2ncnc3[nH]ncc23)c1	0.1	-7.0%	-4.3	3.5	0.4	0.66	-0.4
24	C=CCCCCCCCCc1nc(SCC(C)=O)n[nH]1	5.4	1.6%	-0.8	-0.5	-0.1	0.646	-3.4
25	COc1ccc(Cl)cc1NC(=O)CN(C)C(=O)C1CC1	1.3	-3.6%	0.9	2.9	0.7	0.653	4.9
26	COc1cc(CCC(=O)NCc2ccc(F)cc2)cc(OC)c1OC	4.3	-4.4%	-4.2	3.9	2.2	0.67	0.7
27	Cc1ccc(S(=O)(=O)NCC(=O)N(CC(=O)NCc2ccco2)Cc2ccco2)cc1	4.0	6.7%	2.3	-4.6	0.1	0.694	-0.2
28	Nc1nc(SCC(=O)N2CCc3ccccc3C2)[nH]c(=O)c1-c1ccccc1	5.5	10.9%	1.4	1.6	1.4	0.708	-4.4
29	C=CCN1C(=O)C2C(C(=O)NCc3ccccc3)C3C=CC2(O3)C1C(=O)NC(C)(C)C (stereo not drawn)	0.4	-1.6%	4.6	2.4	-0.6	0.684	2.9
30	Cc1cccc(NC(=S)NC(=O)c2ccco2)n1	1.8	10.5%	12.1	2.3	-0.6	/	2.2
31	O=C1c2cccc3cccc(c23)C(=O)C1(O)O	8.3	/	-2.9	-3.3	-0.2	0.638	2.4
32	Cc1cccc(-c2nc(NCCCN3CCOCC3)c3ccccc3n2)c1	-1.9	0.9%	5.8	6.5	-0.4	0.688	1.9
33	Nn1cnnc1N/N=C/c1cccc(Cl)c1Cl	/	1.6%	14.5	-4.2	-0.6	/	0.7
34	COC(=O)CCc1ccc(OCC(O)CNC(C)C)cc1 (stereo not drawn)	2.0	/	-5.1	-1.2	-0.2	0.705	4.2
35	Cc1c(C(=O)O/N=C(\N)c2ccccn2)cccc1[N+](=O)[O-]	1.7	29.3%	-6.4	1.4	-7.8	0.65	6.8
36	Cc1nn(Cc2ccc(Cl)cc2Cl)c(C)c1NC(=O)Cn1nc([N+](=O)[O-])c(Cl)c1C	0.5	4.2%	-3.6	-1.3	3.9	0.744	0.5
37	CCN(CC)C(=O)COC(=O)c1cc(-c2ccco2)nc2ccccc12	-265.9	?	-0.4	-44.2	/	0.727	/
38	CCc1ccc(NC(=O)Cn2c(=O)n(CCC(=O)NC3CCN(Cc4ccccc4)CC3)c(=O)c3ccccc32)cc1	2.7	31.1%	3.2	0.5	0.0	0.664	-6.7
39	CC[N+]1(C)CC2CCC(C)(C1)C2(C)C (stereo not drawn)	3.0	-8.5%	-4.0	-0.5	/	0.654	-7.8
40	COc1ccc(NS(=O)(=O)c2ccc(C)c(C(=O)N(C)CCc3ccc(OC)c(OC)c3)c2)cc1	2.2	/	-0.3	3.5	-1.2	0.717	0.1
41	CCOc1ccc(-c2nnn(CC(=O)N3CCCC(C)C3)n2)cc1 (stereo not drawn)	3.2	-2.1%	-9.9	0.0	0.1	0.708	-3.4
42	COc1ccc(OCC(O)CN2CCc3ccccc3C2)cc1 (stereo not drawn)	4.2	/	-3.7	6.0	0.4	0.648	-2.4
43	CC1(C)CC(=O)C2=C(C1)N(CC1CCCO1)C(=O)NC2(C(F)(F)F)C(F)(F)F (stereo not drawn)	2.9	0.2%	-2.3	-1.2	0.4	0.668	-6.8
44	N#Cc1cn(CC(=O)N2CCCc3ccccc32)c2ccccc12	-3.8	2.4%	-7.0	1.6	-0.7	0.754	2.1
45	CCOP(=O)(c1ccccc1)c1nc(-c2ccc(F)cc2)oc1N1CCCCC1 (stereo not drawn)	-10.2	0.8%	4.2	-0.8	0.6	0.734	-2.4
46	Cc1ccc(C)n1-c1ccc(N2CCOCC2)c(Br)c1	4.6	15.9%	-2.5	1.7	1.0	0.804	-0.7
47	Cc1cccc(C(=O)OCC(=O)Nc2nnc(-c3ccccc3)o2)c1O	0.1	-3.2%	7.7	-1.7	0.3	0.667	/
48	CCOC(=O)CC1(NC(=O)c2cc(COc3cncc(Cl)c3)on2)CCCCC1	1.8	-13.1%	2.7	-0.9	-0.3	0.704	2.4
49	CCCCNC(=O)COC(=O)CCC(=O)c1ccc(Cl)cc1	-0.1	9.4%	-5.6	3.7	0.0	0.655	4.5
50	CSc1cccc(NC(=O)CCCOc2ccc(Cl)cc2C)c1	5.6	/	-2.5	1.2	-0.1	0.701	-3.2
51	Cc1onc(-c2c(Cl)cccc2Cl)c1C(=O)Nc1ccc2c(c1)OCCO2	0.9	11.6%	-3.4	-3.8	2.0	0.8	-1.8
52	Cc1ccc(-c2nnc(SCC(=O)N/N=C/c3c(C)nn(-c4ccccc4)c3C)n2-c2ccc(C)cc2)cc1	/	2.4%	-3.6	-3.5	0.7	/	-2.1
53	N#Cc1ccc(OCC(=O)NC2=NCCS2)cc1	3.2	-4.8%	-3.1	-0.7	-0.6	0.644	0.1
54	O=C(C1CCN(S(=O)(=O)c2ccc(Br)s2)CC1)N1CCCCC1	3.4	/	-4.8	-0.1	0.1	0.692	1.3
55	CCOC(=O)NS(=O)(=O)c1ccc(CCNC(=O)c2cc(C)on2)cc1	-0.6	6.0%	10.6	0.6	1.0	0.705	0.9
56	Cc1cc(Cl)n2c(nc3cc(F)c(F)cc32)c1C#N	-27.9	7.8%	112.8*	-2.2	/	0.664	/

More results follow:
No.	canonical_smiles	UCH37 inh	Vif A3G	B2AR ag	HNF4A DNA FP	A1 inh	Ecoli growth	LANA-H2B inh
57	CC(OC(=O)CNC(=O)c1ccco1)C(=O)Nc1ccc(Cl)cn1 (stereo not drawn)	0.4	-0.2%	3.3	0.7	0.4	0.689	-0.6
58	c1ccc2nc3c(nc2c1)CCCC3	2.7	-11.0%	-1.1	2.8	-0.2	0.644	1.0
59	CC(Oc1cccc(Cl)c1)C(=O)Nc1ccccc1C(=O)N1CCCCC1 (stereo not drawn)	1.2	/	16.9	4.1	0.9	0.669	-0.1
60	O=S1(=O)CCOC[C@H](CC2CCCCC2)N1Cc1ccccc1Br	1.4	/	1.9	0.0	0.5	/	-5.8
61	COC(=O)/C(C#N)=C/c1c(N2CCCCCC2)nc2c(C)cccn2c1=O	9.2	-3.6%	-10.3	-0.9	/	0.664	/
62	CN1C(=O)NC(c2ccc([N+](=O)[O-])cc2)C2=C1CC(C)(C)CC2=O (stereo not drawn)	4.7	-5.9%	-0.3	2.8	0.2	0.641	-6.1
63	CCN(CC)C(=O)CSc1nnc(-c2cccnc2)n1Cc1ccccc1	-1.2	3.8%	-5.0	2.2	-0.3	0.697	1.7
64	Cc1cc(Oc2ccccc2)nc(-c2ccccc2O)n1	4.4	-3.5%	2.1	-1.6	-0.4	0.662	-0.8
65	CC(=O)NC(Cc1ccccc1)C(=O)NC1CCN(C(=O)NC2CCCCC2)CC1 (stereo not drawn)	0.9	-0.9%	-5.0	3.2	0.0	0.7	1.9
66	Cc1c(Cl)c([N+](=O)[O-])nn1CCCC(=O)Nc1c(C)n(C)n(-c2ccccc2)c1=O	2.6	-6.0%	2.0	0.7	0.8	0.681	2.6
67	CCN(CC)C(=O)CSc1nnc(-c2ccccn2)n1-c1ccc(C)c(C)c1	6.3	-1.9%	-10.8	-3.0	-0.2	0.739	1.4
68	CCN(CC(=O)NCc1cccs1)C(=O)/C=C/c1ccc(Cl)c(Cl)c1	4.6	/	-9.9	-5.4	0.7	0.693	5.0
69	CCN(CC)CCNC(=S)Nc1ccc(F)cc1	-0.3	/	0.9	0.4	0.8	0.728	0.7
70	Nc1nc2ccccc2n1C(=O)CCc1ccccc1	4.5	-6.2%	-5.1	1.7	-3.4	0.679	2.3
71	COC(=O)c1cc(=O)nc2sc3ccccc3n12	-2.5	5.1%	-1.7	6.1	-0.3	0.676	0.0
72	Cc1cc(C(=O)C(=O)N(C)C)c(C)n1-c1ccc([N+](=O)[O-])cc1	6.5	4.2%	2.6	0.1	-0.2	0.709	3.2
73	COc1ccccc1/C=C/C(C)=O	-32.2	-1.3%	-4.8	-0.8	-0.2	0.642	4.9
74	CN(c1ccc(OCC(=O)OCC(=O)Nc2cccc([N+](=O)[O-])c2)cc1)S(=O)(=O)c1ccc(F)cc1	1.5	3.7%	1.1	-6.9	1.0	0.711	0.1
75	NS(=O)(=O)c1ccc(NC(=S)NNC(=O)CCC(=O)Nc2ccccc2Cl)cc1	6.2	/	-2.9	-1.4	0.5	0.706	3.2

Screening data: PubChem, several laboratories
